RecA intein inh: Mtb RecA intein splicing inhibition. P9WHJ3. cell-free RecA intein splicing, fluorescence. inhibition, %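 (about 9 µM by stock and volumes)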. actives 0.75% (n = 290,000). AID 2221; in the data active means inhibition above about 30%; inconclusive means no clear call, values can overlap the other calls;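 further: 0% = vehicle wells and 100% = reference inhibitor control wells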
Target sequence (P9WHJ3 whole entry, looked up): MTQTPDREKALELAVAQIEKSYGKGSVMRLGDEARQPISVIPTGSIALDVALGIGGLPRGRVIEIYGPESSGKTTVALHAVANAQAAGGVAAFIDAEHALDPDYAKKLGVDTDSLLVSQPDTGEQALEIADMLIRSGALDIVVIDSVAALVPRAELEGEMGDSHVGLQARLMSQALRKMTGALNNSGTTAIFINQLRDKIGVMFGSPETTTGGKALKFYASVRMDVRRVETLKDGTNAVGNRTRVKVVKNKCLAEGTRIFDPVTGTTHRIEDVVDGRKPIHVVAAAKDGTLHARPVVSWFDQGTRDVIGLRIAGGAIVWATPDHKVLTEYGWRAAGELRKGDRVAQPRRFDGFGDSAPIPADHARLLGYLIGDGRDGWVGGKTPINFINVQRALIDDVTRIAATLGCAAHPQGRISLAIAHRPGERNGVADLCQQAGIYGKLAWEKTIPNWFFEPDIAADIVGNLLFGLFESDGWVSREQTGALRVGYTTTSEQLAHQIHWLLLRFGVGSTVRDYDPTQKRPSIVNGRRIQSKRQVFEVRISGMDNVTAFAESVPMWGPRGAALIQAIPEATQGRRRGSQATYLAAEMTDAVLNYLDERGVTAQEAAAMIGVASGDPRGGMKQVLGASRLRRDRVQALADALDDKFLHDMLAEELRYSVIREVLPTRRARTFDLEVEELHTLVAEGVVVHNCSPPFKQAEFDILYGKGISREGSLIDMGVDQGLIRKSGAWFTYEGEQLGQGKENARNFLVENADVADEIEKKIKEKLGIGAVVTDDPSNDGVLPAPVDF
Mtb betalactam: beta-lactam sensitization of Mtb H37Rv; actives 0.27% (n = 330,000); inhibition, % at 25 µM; M. tuberculosis H37Rv growth with meropenem, percent inhibition; hits of this screen are not shown here;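 active means about 74% or more and at least 40 points above the plate without the antibiotic, then above 30% in a dose series; inconclusive means first-round hits that could not be retested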;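 further: growth measured after seven days incubation then overnight dye step; 0% = bacteria only wells and 100% = bacteria with antibiotic; twin plates without the antibiotic show which effects depend on it; some results filed as inactive read as strong as hits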
Arbovirus inh: arbovirus infection inhibition; arbovirus infection cell-based antiviral screen; inhibition, % at 10 µM; actives 0.37% (n = 200,000); AID 1251;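 active means inhibition from about 30%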;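 further: bluetongue infection of BSR cells; cell survival read as ATP light after 72 h; 0% = infected wells without compound and 100% = uninfected wells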
Mtb growth: M. tuberculosis H37Rv growth inhibitors, H37Rv strain (AID 1626); M. tuberculosis H37Rv growth inhibition; higher % means a stronger effect; inhibition, % at 10 µM, or IC50 in µM where a hit was titrated; actives 0.95% (n = 220,000);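 active means confirmed in a dose series; inconclusive means inhibition above 80% but not taken into the dose series; inactive means below 80% or under 30% at every dose of the series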;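 further: bacteria incubated seven days before Alamar blue readout; 0% = bacteria only wells and 100% = bacteria with antibiotic wells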
YopH PTP inh: blocks Yersinia enterocolitica YopH tyrosine phosphatase | AID 898 | fluorescence Ex485/Em525 | actives 0.16% (n = 140,000) | inhibition, %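 (about 10 µM by stock and volumes)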;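 active means inhibition of 50% or more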;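 further: controls were vehicle for no effect and minimum signal wells for full effect; inactives centre near -20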
Arbovirus inh repeat: also measured in Arbovirus inh; calls as there; inhibition, %; measured here: 10K subset replicate screen; many hits read low in the repeat;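 first of two repeat runs on a subset; 0% = infected and 100% = uninfected wells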
Numbers without * were called inactive; i = inactive; ? = inconclusive; . = not tested or not shown. An excerpt; count on the stated rates, not on these rows.

SMILES	RecA intein inh	Mtb betalactam	Arbovirus inh	Mtb growth	YopH PTP inh	others
C/C(=N\NC(=O)c1cc2c(s1)CCC(C)C2)c1cccnc1 (stereo unspecified)	-1.1	76	-3	3%	-2
Cc1ccc(S(=O)(=O)NC(CC(C)C)C(=O)NCc2ccco2)cc1 (stereo unspecified)	1.6	-15	14	-5%	-14
CNC1(C(N)=O)CCNCC1	-4.9	6	.	-4%	.
O=C1CC[C@H](OCc2ccccc2)CCN1[C@H](CSc1ccccc1)Cc1ccccc1	2.5	2	.	.	.
CCCCCn1c(=S)[nH]c2cc(C(=O)N3CCCC3)ccc2c1=O	1.0	-3	6	6%	.
CCOC(=O)C1CCN(Cc2nc3ccc(Cl)cc3n2CCO)CC1	-0.2	-2	12	-8%	-14
NC(=O)CSC1=Nc2ccccc2C2=NC(CC(=O)NCc3cccs3)C(=O)N12 (stereo unspecified)	0.0	7	2	-7%	-45
COc1cccc(NC(=O)Cn2cc(C=O)c3ccccc32)c1	4.2	5	.	.	.
CCOc1cc(CNCC(C)C)cc(Cl)c1OCc1ccccc1	-1.8	57	1	3%	.
CCOC(=O)c1ccc2[nH]c3c(c2c1)CCCC3NC=O (stereo unspecified)	-0.6	3	.	.	.
Cc1ccc(-n2c(SCC(=O)Nc3cccc(S(=O)(=O)NC4=NCCCCC4)c3)nc3ccccc3c2=O)cc1	5.5	5	-2	4%	-10
O=C(Nc1nc2c(F)cc(F)cc2s1)c1ccco1	-5.1	-4	.	.	.
CN(C)C(=O)c1cn(N(C)c2ncc(C(F)(F)F)cc2Cl)c(=O)c2ccccc12	9.1	-5	-6	0%	-25
Cc1onc(-c2ccccc2Cl)c1C(=O)NC1CCS(=O)(=O)C1 (stereo unspecified)	-3.2	-2	1	6%	-50	Arbovirus inh repeat=2
O=C(c1ccc2c(c1)OCO2)C1CCCN(Cc2c(F)cccc2Cl)C1 (stereo unspecified)	2.5	0	.	.	.
Cc1cc(N2CCN(S(=O)(=O)Cc3ccccc3)CC2)n2ncnc2n1	0.3	-6	7	-4%	-50
COC(=O)c1ccc(Sc2ccc(C)cc2)c(N)c1	2.4	1	5	-1%	-45
CCc1nnc(NC(=O)[C@@H](NC(=O)c2ccc(OC)cc2)C(C)C)s1	7.3	-7	3	-1%	.
O=C(c1ccc2c(c1)OCCO2)C1CCN(C(=O)c2ccc(F)c(F)c2)CC1	5.2	-7	0	5%	-43
COc1cc(/C=N/NC(=O)C(=O)NCC2CCCO2)cc(Cl)c1O (stereo unspecified)	-2.6	2	.	-3%	.
C/C(=N/NC(=O)CNC(=O)c1ccncc1)c1ccc(Cl)cc1	1.7	-1	.	1%	.
CC(C)CC1Nc2ncnc(N3CCN(c4ccccc4)CC3)c2N(Cc2ccccc2)C1=O (stereo unspecified)	11	64	.	.	.
COc1ccccc1CNC(=O)CN(C)Cc1ccc(SC)cc1	2.6	-6	.	.	.
Clc1ccc(CNCCCSc2ncccn2)cc1Cl	-2.7	0	.	.	.
Cc1ccc2oc(=O)n(Cc3ccccc3OC(C)C)c2c1	0.9	7	4	-4%	-24
CCN1CCN(CCCNC(=O)c2ccc(CS(=O)c3ccc(Br)cc3)o2)CC1 (stereo unspecified)	-4.7	-6	.	.	.
Cn1c(=O)c2c(nc(CN3CCN(Cc4ccccc4)CC3)n2Cc2ccc(Cl)cc2)n(C)c1=O	0.8	27	-4	22%	-37	Arbovirus inh repeat=-21
CC(C)CNS(=O)(=O)c1ccc(OCC(=O)Nc2ccc3c(c2)OCO3)c(Cl)c1	2.4	-2	-5	-10%	28
COc1ccc(/C=C/C(=O)NCc2ccccn2)cc1OC	1.3	5	-5	-5%	.
O=C(c1ccc(N2CCCCC2)c([N+](=O)[O-])c1)N1CCN(S(=O)(=O)c2ccccc2)CC1	3.3	2	.	.	.
Cc1cc(C)cc(NS(=O)(=O)c2cccs2)c1	-0.3	-8	.	.	.
COc1ccc(NC(=O)CC2Sc3ncnn3C2=O)cc1 (stereo unspecified)	5.9	5	16	-5%	-20	Arbovirus inh repeat=8
CCN(C(=O)COC(=O)c1cc(=O)[nH]c2ccccc12)C1CCS(=O)(=O)C1 (stereo unspecified)	-0.3	-1	.	-1%	.
Cc1snc2sc(C(=O)c3ccc(F)cc3)c(N)c12	-2.4	4	.	-1%	.
COc1ccccc1NC(=O)c1cc(C(=O)O)ccc1C(=O)O	2.6	-1	13	0%	-17
O=[N+]([O-])c1ccc(Cl)cc1CNc1ccc(F)c(F)c1	8.6	-4	26	13%	-22
Cc1csc(SCC(=O)Nc2ncc(Cl)c(C)c2Cl)n1	2.8	-10	-1	1%	-25
CC1=CC(C)(C)N2C(=O)C(=O)c3cc(OC(=O)c4ccco4)cc1c32	27	21	-4	-1%	.
COc1ccc(Cl)cc1NS(=O)(=O)c1ccc(S(=O)(=O)N2CCCC2)cc1	1.0	-10	14	0%	-26
Cc1ccc(C)c(-n2c(C)cc(/C=N/NC(=O)c3c(C)nc4cc(C)ccn34)c2C)c1	2.1	-10	-8	-7%	-24
Cc1cccc(-c2nn(-c3ccccc3)cc2C(=O)N(C)CC(=O)Nc2ccc(N3CCOCC3)cc2)c1	-1.1	2	.	.	.
CSc1ccccc1NC(=O)c1ccccc1C	0.1	59	-1	-5%	.
OCCOc1ccc(CN2CCN(CCCc3ccccc3)C(CCO)C2)cc1 (stereo unspecified)	-2.6	9	.	.	.
CCCCn1c(N)c(N(CC)C(=O)CSc2nnnn2-c2cc(C)ccc2C)c(=O)[nH]c1=O	.	-7	22	3%	.
Nc1ccc(C(=O)N2CCN(S(=O)(=O)c3ccc(Br)cc3)CC2)cc1[N+](=O)[O-]	1.3	-1	.	.	.
CCCCN=C1CC(C)(C)CC(=O)/C1=C(/O)CCC	-1.1	.	.	3%	.
O=C(CCc1ccc(S(=O)(=O)N2CCOCC2)cc1)N1CCc2ccccc2C1	3.1	2	-4	-1%	.
CCOC(=O)c1cc(NC(=O)CSCCO)ccc1Cl	4.9	95	0	-3%	-30
COc1cccc(N=c2oc3ccc(OC)cc3cc2-c2nc3ccccc3[nH]2)c1	-5.7	?	-16	-8%	2
CCOc1ccc(C(C)=O)cc1COC(=O)C(C)N=C1NS(=O)(=O)c2ccccc21 (stereo unspecified)	-1.2	-9	.	.	.
CC(=O)Oc1ccc(N2C(=O)C3C4C=CC(CO)(O4)C3C2=O)cc1 (stereo unspecified)	3.2	3	11	0%	-19
COc1cccc(/C=N/Nc2cc(Cl)nc(C)n2)c1O	-3.4	97	-3	5%	.
COCCCn1c(=N)c(C(=O)NC2CCCCC2)cc2c(=O)n3ccccc3nc21	i	-13	11	-7%	7
CC(C)COc1ccc(C(=O)Nc2sc3c(c2C(=O)O)CC(C)(C)OC3)cc1	-2.1	5	61*	-8%	.
O=C(C1CC1)N(CCN(C(=O)C1CC1)c1ccccc1)c1ccccc1	.	-4	2	5%	-32
N=C1C(c2ccccc2)=C(O)CN1c1cccc(S(=O)(=O)NCc2ccco2)c1	0.6	-6	.	-8%	.
CCNC(=O)NC(=O)COC(=O)CNC(=O)COc1ccccc1	0.6	-8	7	-6%	-28
Cc1cccnc1NC(=O)CCCNC(=O)c1ccc(Cl)cc1	-0.5	-4	.	.	.
CC(=O)Nc1ccc(-c2nnc(SCC(=O)c3ccc4c(c3)Cc3ccccc3-4)n2C)cc1	0.7	-25	-7	6%	-37
Cc1nc(-c2ccc(S(=O)(=O)Nc3ccc(S(N)(=O)=O)cc3)cc2)co1	-5.1	0	.	.	.

Four entries from above, ordered by number of heavy atoms, smallest number first:
SMILES	RecA intein inh	Mtb betalactam	Arbovirus inh	Mtb growth	YopH PTP inh	others
Cc1cccnc1NC(=O)CCCNC(=O)c1ccc(Cl)cc1	-0.5	-4	.	.	.
CCNC(=O)NC(=O)COC(=O)CNC(=O)COc1ccccc1	0.6	-8	7	-6%	-28
COc1cccc(N=c2oc3ccc(OC)cc3cc2-c2nc3ccccc3[nH]2)c1	-5.7	?	-16	-8%	2
CC(=O)Nc1ccc(-c2nnc(SCC(=O)c3ccc4c(c3)Cc3ccccc3-4)n2C)cc1	0.7	-25	-7	6%	-37

(list continues)
SMILES	RecA intein inh	Mtb betalactam	Arbovirus inh	Mtb growth	YopH PTP inh	others
Cc1[nH]c2ccccc2c1SCc1nnc(SCc2ccccc2)n1C	0.9	-1	.	-8%	.
CCN(CC)C(=O)C1CCCN(Cc2ccccc2)C1 (stereo unspecified)	-0.6	-6	1	-8%	9
O=C(c1ccc2c(c1)OCO2)N1CCN(c2ccccc2)CC1	-0.1	-9	-4	-1%	-24
COc1ccc(S(=O)(=O)N2CCOC2CNC(=O)C(=O)NCc2ccncc2)cc1OC (stereo unspecified)	-3.2	-16	.	.	.
CC(=O)c1cc2c(cc1NC(=O)c1ccco1)OCCO2	-0.7	2	-4	9%	.
Cc1ccc(SCC(=O)OC(C)C(=O)N2CCc3ccccc32)cc1 (stereo unspecified)	3.9	-3	.	.	.
COc1ccccc1N1C(=O)C2CCC(c3ccccc3)CC2C1=O (stereo unspecified)	0.6	-10	7	-4%	-34
Cc1ccc(NC(=O)c2c(-c3c(F)cccc3Cl)noc2C)cc1F	6.0	?	-3	1%	-15
O=c1c2sccc2n(Cc2cc(=O)n3ccccc3n2)c(=O)n1-c1ccccc1	-2.5	0	4	2%	-16
CCCOc1ccc(N2C(=O)CC(N3CCN(c4ccccc4OC)CC3)C2=O)cc1 (stereo unspecified)	0.2	6	0	-7%	-4	Arbovirus inh repeat=-1
OCC(O)/C=N/Nc1nc(N2CCCCC2)nc(N2CCCCC2)n1 (stereo unspecified)	-1.9	4	-1	7%	.
O=C(NCc1ccccc1Cl)C1CCN(S(=O)(=O)c2ccc(-n3cnnn3)cc2)CC1	-5.7	-4	.	.	.
CCCC/C(C)=N\NC(=O)CNS(=O)(=O)c1ccc([N+](=O)[O-])cc1	-4.9	-4	9	-3%	-23
O=C(NCCc1ccccc1)c1ccnc(/C=N/O)c1	-0.6	9	3	-2%	-61
CCOc1cnc(-c2c(-c3c(Cl)cccc3Cl)noc2C)o1	12	1	3	3%	.
Cc1ccc2nc3c(cc(C(=O)NCCc4ccccc4)c(=N)n3CCN3CCOCC3)c(=O)n2c1	-223	8	.	.	.
CSc1nc2n(n1)C(c1cc(Br)ccc1F)C(C(=O)N(C)C)=C(C)N2 (stereo unspecified)	-0.8	-1	-3	-11%	-26
Nc1cccc(S(=O)(=O)Nc2ccc(Br)cc2)c1	1.2	-3	.	5%	.
CCCS(=O)(=O)c1nc(S(=O)(=O)c2ccc(C)cc2)c(NCc2ccc3c(c2)OCO3)s1	5.2	-2	-3	0%	-13
Cc1cc(C)n(Cc2cccc(F)c2)c(=O)c1C#N	2.0	-7	8	-1%	-42
CN1CCN(C2OC(=O)c3ccccc32)CC1 (stereo unspecified)	-1.1	-5	0	-1%	-26
O=C(CSC1=Nc2ccccc2C2=NC(CC(=O)NC3CCCCC3)C(=O)N12)NCc1ccco1 (stereo unspecified)	0.0	-2	10	-3%	-54
O=C(CSc1nc2ccccc2n1Cc1ccc(Cl)cc1)N/N=C/c1ccccc1C(=O)O	4.0	2	-13	5%	.
COc1ccc(S(=O)(=O)NC2CC(=O)N(c3ccc(C)c(C)c3)C2)cc1C (stereo unspecified)	3.8	-8	.	.	.
O=C(Nc1ccc(Nc2ccccc2)cc1)c1cccc(F)c1	-1.2	6	.	.	.
CC(NC(=O)Nc1ccc(F)cc1)c1ccc2c(c1)OCO2 (stereo unspecified)	-2.6	-15	.	.	.
Cc1cc(NC(=O)C(C)SCC(=O)OC(C)C(=O)Nc2cccc(C#N)c2)no1 (stereo unspecified)	3.1	-8	.	.	.
O=C(c1cc(C(=O)N2CCOCC2)c2nc3ccccc3n2c1)c1ccccc1O	-1.2	-3	.	-3%	.
CCCCOC(=O)Cn1c(=O)n(CC(=O)OCCCC)c2cc(C)ccc21	4.4	71	-3	8%	-45
Cc1cc(-c2ccc(C)c(S(=O)(=O)Nc3cccc(CN4CCCC4)c3)c2)on1	-0.3	5	.	.	.
CS(=O)(=O)N(CC(=O)NCCSCc1cccc(Cl)c1)c1ccc(F)cc1	-3.8	-3	.	.	.
Cc1ccc(CS(=O)(=O)c2ncc(Cl)c(C(=O)Nc3nnc(C)s3)n2)cc1	61*	-5	.	.	.

Quoted at random: four entries already listed, in no set order.
SMILES	RecA intein inh	Mtb betalactam	Arbovirus inh	Mtb growth	YopH PTP inh	others
CC(NC(=O)Nc1ccc(F)cc1)c1ccc2c(c1)OCO2 (stereo unspecified)	-2.6	-15	.	.	.
Cc1cc(NC(=O)C(C)SCC(=O)OC(C)C(=O)Nc2cccc(C#N)c2)no1 (stereo unspecified)	3.1	-8	.	.	.
CS(=O)(=O)N(CC(=O)NCCSCc1cccc(Cl)c1)c1ccc(F)cc1	-3.8	-3	.	.	.
O=C(Nc1ccc(Nc2ccccc2)cc1)c1cccc(F)c1	-1.2	6	.	.	.

From PubChem BioAssay
